# LANA-H2B inh – blocks KSHV LANA binding to histone H2A/H2B | Q9QR71 | cell-free LANA-H2A/H2B peptide, fluorescence polarization | inhibition, % (no concentration beside the values) | 320,000 compounds, 0.6% hits; in the data active means inhibition mostly above about 10%, no sharp cut-off; inactive means mostly below about 6.7%;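 further: stock transfer was 7.5 nL into about 10 µL; 0% = median of vehicle wells and 100% = median of positive control wells; one replicate is shown; the record names a cut of 25% in any replicate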
# Beta cell apopt – beta cell apoptosis inhibition. INS-1E cytokine-induced death, ATP luminescence, 48 h; percent of positive-control rescue, neutral wells zero. protection from apoptosis, % (no concentration beside the values). 300,000 compounds, 0.8% hits. AID 435005;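 active means all replicates at 75% or more, or half of them and the mean; inconclusive means half reach 75% but not the mean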;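 further: 0% = cytokine-treated negative control wells and 100% = positive control rescue; higher means more ATP so stronger rescue from cytokine killing; wells of about 40 µL received 100 nL stock; the first replicate is given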
# RanGTP-Imp inh – disruptors of Ran-importin-beta complex formation – biochemical, FRET, CFP-Ran, YFP-importin-beta, homogeneous, primary screen. cell-free CFP-Ran/YFP-importin-beta FRET ratio. inhibition, % (no concentration beside the values). 300,000 compounds, 1.1% hits. AID 2216;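 active means most replicates above 15%; inconclusive means exactly half above 15%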;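 further: 0% = DMSO wells and 100% = Ran loaded with GDP instead of GTP; wells of about 40 µL received 100 nL stock; the first replicate is given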
# UCH37 inh – blocks the human deubiquitinase UCH37; 330,000 compounds, 0.33% hits; purified proteasome/UCH37, Ub-AMC cleavage fluorescence; Q9Y5K5; inhibition, % (test concentration not listed);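 active means mean of two replicates above 20%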;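 further: 0% = compound-free wells with enzyme and 100% = wells lacking proteasome; stock transfer was 100 nL into about 20 µL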
# Target sequence (Q9Y5K5 whole entry, looked up): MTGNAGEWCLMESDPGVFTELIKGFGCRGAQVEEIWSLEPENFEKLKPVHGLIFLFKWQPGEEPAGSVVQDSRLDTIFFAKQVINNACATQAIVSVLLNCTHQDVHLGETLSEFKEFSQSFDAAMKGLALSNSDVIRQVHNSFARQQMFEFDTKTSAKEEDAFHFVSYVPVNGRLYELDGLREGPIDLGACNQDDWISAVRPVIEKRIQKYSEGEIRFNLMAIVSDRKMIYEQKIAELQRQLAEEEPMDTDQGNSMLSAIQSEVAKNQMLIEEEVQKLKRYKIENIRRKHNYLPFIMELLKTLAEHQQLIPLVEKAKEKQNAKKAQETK
#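 system = Proteasome-associated human UCH37 deubiquitinase | amount = 0.15 nM proteasome as dispensed | medium = pH 7.4 Tris-HCl (50 mM) with ovalbumin, ATP-MgCl2, DTT | incubation = 30 min preincubation with enzyme, 25 min cleavage at room temperature | detection = AMC fluorescence 355/460 nm | read-out basis = percent inhibition | controls = no-proteasome and no-compound wells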
# Calb FLC – affects C. albicans growth with fluconazole. C. albicans CaCi-2 (fluconazole-resistant clinical isolate) + fluconazole, Alamar Blue growth, 48 h. growth inhibition, % (concentration not given with the values). 300,000 compounds, 0.57% hits. AID 1979;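 active means most replicates above 75%; inconclusive means exactly half above 75%; inactive means most below 75%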;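 further: all wells also contain fluconazole at 8 µg/ml as a sub-toxic cotreatment; 0% = median of DMSO wells and 100% = median of geldanamycin control wells; wells of about 8 µL received 7.5 nL stock; the first replicate is given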
# A1 inh – inhibitors of the anti-apoptotic protein A1, read as caspase activation; caspase activation, % (concentration not given with the values); MEF A1-2A-BIM cells, Caspase-Glo 3/7 luminescence, 3 h; percent of clofoctol response, vehicle zero; 330,000 compounds, 0.066% hits;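 active means over half of replicate activation scores above 10%, or exactly half above 10 with the replicate mean above 10; inconclusive means replicate mean below 10 yet half the replicates above 10; inactive means over half of replicates below 10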;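 further: wells of about 30 µL received 50 nL stock; many hits fall short of the cut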
# B2AR ag – activates human beta-2 adrenergic receptor causing internalization; 340,000 compounds, 0.43% hits; response, % (concentration not given with the values); P07550; AID 504454; Am2.2-beta2AR cells, FAP receptor internalization, flow cytometry; reference of the scale not given here;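 active means response above a set limit, near 3 SD of response in nonfluorescent compounds, cut at about 42% in these data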;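 further: stock transfer was 100 nL into about 11 µL; a reference agonist was the positive control; negative values mostly stem from fluorescent compounds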
# Target sequence (P07550 whole entry, looked up): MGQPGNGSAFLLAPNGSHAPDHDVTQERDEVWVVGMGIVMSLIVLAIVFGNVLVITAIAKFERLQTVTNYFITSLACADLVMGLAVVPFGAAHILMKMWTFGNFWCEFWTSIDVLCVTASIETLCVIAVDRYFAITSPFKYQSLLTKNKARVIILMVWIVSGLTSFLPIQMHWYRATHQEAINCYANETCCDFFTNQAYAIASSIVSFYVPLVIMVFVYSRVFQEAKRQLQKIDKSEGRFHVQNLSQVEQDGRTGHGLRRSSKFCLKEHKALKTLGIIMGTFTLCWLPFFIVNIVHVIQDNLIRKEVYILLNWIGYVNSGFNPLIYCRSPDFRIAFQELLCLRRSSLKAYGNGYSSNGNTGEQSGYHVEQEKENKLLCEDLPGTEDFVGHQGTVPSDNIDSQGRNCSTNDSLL
# T cruzi repl – T. cruzi replication inhibition; inhibition, % (test concentration not listed); 300,000 compounds, 1.4% hits; T. cruzi beta-gal in NIH3T3, luminescence, 90 h; AID 1885;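 active means mean inhibition across valid replicates above about 55%, limit read from the data; inconclusive means mean below that limit but half or more replicates reach it; inactive means mean below it, under half of replicates reach it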;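 further: signal also drops with host cell toxicity which is not excluded here; 0% = plate median of DMSO wells and 100% = zero luminescence signal; higher percent means less beta-gal luminescence so fewer parasites; stock transfer was 50 nL into about 50 µL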
# Starred values were filed as active, the others as inactive; ? = inconclusive; / = not tested or not shown.
SMILES,LANA-H2B inh,Beta cell apopt,RanGTP-Imp inh,UCH37 inh,Calb FLC,A1 inh,B2AR ag,T cruzi repl
COc1cccc(CNC(=O)Cn2ncn3cccc3c2=O)c1OC,-6.7,-7,0.9,4.0,6,?,-16,-1
CCC(c1nnnn1CCOC)N1CCN(c2cccc(C(F)(F)F)c2)CC1 (stereo unspecified),1.0,/,/,4.6,2,0.4,3,/
CC(OC(=O)CCCOc1ccccc1)C(=O)NC(N)=O (stereo unspecified),4.5,-6,1.7,4.5,3,-0.8,7,-2
Cc1cc2c(cc(C(=O)NCCCN3CCOCC3)n2Cc2ccc(Cl)cc2)o1,-9.9,-6,5.6,0.8,-4,0.7,7,-10
O=C(CN1CCN(S(=O)(=O)N2CCCCC2)CC1)Nc1cc(Cl)ccc1Cl,4.2,-1,0.7,0.6,29,-0.9,6,-11
O=C(Cn1c2c(c(=O)n3ncnc13)CCC2)N/N=C/c1cccs1,1.0,-1,0.2,/,-19,0.5,5,-10
CCC(C)C(=O)Nc1nnc(SCC(=O)NC2CCCCC2)s1 (stereo unspecified),3.0,-1,-0.1,2.0,6,1.1,1,-9
CCc1ccc(/C=C2/C(=O)N(CC)C(=S)N2C)s1,-1.9,7,?,2.1,-3,-0.2,7,-2
O=C(c1c(F)cccc1F)N1CCN(c2ncc(Br)cn2)CC1,-0.6,-4,6.1,-1.4,-13,0.5,-9,-6
O=C1c2ccc([N+](=O)[O-])cc2C(=O)N1c1ccc([N+](=O)[O-])cn1,-9.5,-4,-1.0,7.2,-1,-0.3,-19,-1
CCN(c1ccccc1)S(=O)(=O)c1ccc(Cl)nc1,-2.7,7,-4.1,3.7,2,-0.2,-3,-7
CN(Cc1nc(-c2ccccn2)no1)S(=O)(=O)c1ccc(Br)cc1,-2.7,0,?,-0.5,6,-0.6,-3,-5
CC(C)(C)OC(=O)n1cc(/C=N/NC(=O)c2ccco2)c2ccccc21,-2.3,-1,2.8,/,-1,0.9,7,-9
C/C(=N\NC(=O)c1ccccc1)c1ccccc1F,-1.0,-4,-6.3,/,0,-4.1,3,2
COC(=O)c1ccc(CSc2nc3c(cnn3-c3ccccc3)c(=O)[nH]2)o1,2.3,-6,1.0,2.0,-9,0.7,0,1
c1ccc(-n2nnnc2SCc2cn3ccccc3n2)cc1,0.6,-4,1.0,1.4,-5,2.2,-4,-13
COc1ccc(N=c2oc3c(OC)cccc3cc2C(=O)NCc2ccco2)cc1OC,1.1,13,/,3.1,/,-0.5,17,/
C[C@@H]1CN(c2nc3nonc3nc2N2CCSCC2)C[C@H](C)O1,3.1,5,10.0,5.7,?,0.4,-4,2
Cc1ccc(C2CC(c3cccs3)=NN2C(=O)CCl)cc1 (stereo unspecified),-4.4,-10,-1.6,/,3,0.0,-57,59*
CCCN(CCC)S(=O)(=O)c1ccc(C(=O)NCc2n[nH]c(=S)n2-c2ccc(Cl)c(Cl)c2)cc1,-1.1,1,-3.0,4.6,?,0.8,-1,9
CCCCCNc1nc(-c2ccccc2)cs1,-0.2,-5,4.7,/,-25,0.9,/,11
O=C(CSCc1c(Cl)cccc1Cl)Nc1cccnc1,1.2,3,0.1,4.9,-17,1.4,-1,12
CCOC(=O)C1CCCCN1Cc1ccc(F)c(Br)c1 (stereo unspecified),-2.0,0,1.5,1.6,-8,1.2,2,-15
Cc1nc(-c2cccnc2)sc1C(N)=O,-1.0,-4,0.9,-1.5,-13,?,1,-13
Cc1cc(C)n2c(SCCO)nnc2n1,-1.6,/,?,5.8,5,0.1,-13,-10
COc1cc(C)c(S(=O)(=O)N2CCOCC2)cc1C,8.2,-2,-1.5,1.5,-9,-0.6,3,-4
Cc1nc(S(=O)(=O)c2ccc(Cl)cc2)c(N(C)C)o1,-2.5,-1,0.7,3.5,-4,0.6,2,-12
O=C(O)CCC(=O)NC1CCCCCCC1,-1.9,0,8.7,-1.5,-6,-0.5,4,-6
CCn1cc(SCC(=O)NC2CCCC2)c2ccccc21,3.2,-9,3.0,3.4,-2,0.3,6,7
CCOc1ccc(-c2nnc3ccc(SCC(=O)Nc4nc5ccc(C)cc5s4)nn23)cc1,-6.3,-6,-0.3,-34,10,0.2,-12,12

# 3 structures out of the list, arranged by molar mass, low to high.
SMILES,LANA-H2B inh,Beta cell apopt,RanGTP-Imp inh,UCH37 inh,Calb FLC,A1 inh,B2AR ag,T cruzi repl
O=C(O)CCC(=O)NC1CCCCCCC1,-1.9,0,8.7,-1.5,-6,-0.5,4,-6
CCCCCNc1nc(-c2ccccc2)cs1,-0.2,-5,4.7,/,-25,0.9,/,11
c1ccc(-n2nnnc2SCc2cn3ccccc3n2)cc1,0.6,-4,1.0,1.4,-5,2.2,-4,-13

# The list continues:
SMILES,LANA-H2B inh,Beta cell apopt,RanGTP-Imp inh,UCH37 inh,Calb FLC,A1 inh,B2AR ag,T cruzi repl
O=C(N/N=C/c1nn(-c2ccccc2)cc1-c1ccc(Cl)cc1)c1ccncc1,1.5,5,-3.6,/,-15,0.2,/,33
C=C(C)CCC(C)N1CCC(n2nccc2NC(=O)CCCc2ccccc2)CC1 (stereo unspecified),-0.8,3,-1.2,-0.1,-10,0.1,3,14
COc1ccc(C(=O)NCC2OCCc3ccccc32)c(O)c1 (stereo unspecified),-3.8,2,1.2,1.7,-6,1.1,-2,-23
CC1CCCCC1NC(=O)c1cccc(NC2=NC3CS(=O)(=O)CC3S2)c1 (stereo unspecified),-0.4,-4,3.3,4.3,-7,/,7,-22
CCn1nnc(NC(=O)C(C)(c2ccccc2)c2ccccc2)n1,1.0,-7,-0.2,4.3,-10,0.9,1,-9
CCCCCCCNc1nc(Cl)nc(NCCO)n1,-8.0,-7,2.2,-0.7,-7,-0.4,-10,8
Cc1cnc(C(=O)OCC(=O)C23CC4CC(CC(C4)C2)C3)cn1,-3.0,-2,0.6,3.7,-6,-0.7,14,2
O=C(Nc1ccc(Cl)cn1)c1ccc(COc2ccccc2Br)o1,-1.0,-6,0.4,1.3,32,-0.7,-1,10
COC(C[C@@H]1O[C@@H]1C(=O)[C@@H](C)OCc1ccccc1)OC,0.2,1,-3.1,/,0,-0.6,-15,3
CCOC(=O)C1=c2/c(=C/c3ccncc3)c(N)c(C(=O)OC)n2C(=O)C(c2ccncc2)S1 (stereo unspecified),/,5,4.7,/,15,-0.3,27,12
CC1=C(C(=O)Nc2ccc(C)cc2C)C(c2cccs2)NC(=S)N1 (stereo unspecified),-1.4,-5,4.1,3.3,-2,-0.1,-1,-10
CCN1/C(=C/c2ccc3cc(C)ccc3[n+]2CC)Sc2ccc3sccc3c21,-5.6,140*,1.9,9.8,101*,-0.9,/,60*
O=C(CSc1nnc(-c2cc(-c3cccs3)nc3ccccc23)o1)NC1CCCCC1,1.9,-2,-1.9,-14,-5,-0.2,-11,13
C=CCn1c(=O)/c(=C/c2ccc(Cl)cc2)s/c1=C(/C#N)c1nnc2n1CCCCC2,11,-3,-4.9,/,-26,-1.2,-6,14
Cc1ccccc1NC(=O)CNC(=O)c1ccc(C(F)(F)F)cc1,/,1,-0.2,6.1,-7,0.8,7,-7

# Next section, overlapping the part above by five compounds.
SMILES,LANA-H2B inh,Beta cell apopt,RanGTP-Imp inh,UCH37 inh,Calb FLC,A1 inh,B2AR ag,T cruzi repl
CC1=C(C(=O)Nc2ccc(C)cc2C)C(c2cccs2)NC(=S)N1 (stereo unspecified),-1.4,-5,4.1,3.3,-2,-0.1,-1,-10
CCN1/C(=C/c2ccc3cc(C)ccc3[n+]2CC)Sc2ccc3sccc3c21,-5.6,140*,1.9,9.8,101*,-0.9,/,60*
O=C(CSc1nnc(-c2cc(-c3cccs3)nc3ccccc23)o1)NC1CCCCC1,1.9,-2,-1.9,-14,-5,-0.2,-11,13
C=CCn1c(=O)/c(=C/c2ccc(Cl)cc2)s/c1=C(/C#N)c1nnc2n1CCCCC2,11,-3,-4.9,/,-26,-1.2,-6,14
Cc1ccccc1NC(=O)CNC(=O)c1ccc(C(F)(F)F)cc1,/,1,-0.2,6.1,-7,0.8,7,-7
O=C1N(c2ccc3c(c2)OCCO3)C(c2ccccc2)C1(F)F (stereo unspecified),1.2,-10,-1.4,1.6,4,0.5,12,-6
CSc1nc2cc(C)nn2c(-c2ccc(C(C)(C)C)cc2)c1C#N,5.1,5,-0.1,-8.2,2,1.5,-5,-35
COc1cc(/C=N/NC(=O)CCc2n[nH]c(=O)[nH]c2=O)cc(OC)c1OC,0.8,-5,6.5,/,5,-0.1,-8,-6
O=C(CSCc1cnn(-c2ccccc2)c1-n1cccc1)NCc1cccs1,2.4,-3,6.8,0.4,?,-1.3,2,11
Cc1nn(C)c(C)c1NS(=O)(=O)c1ccccc1Cl,6.1,-6,/,1.0,/,0.8,12,/
O=C(Cn1nc2sc3ccccc3n2c(=O)c1=O)c1ccc(Cl)cc1,2.7,/,-2.2,-13,-1,0.2,/,-14
COc1ccc(C2=NO[C@@H]3C(=O)N(Cc4ccccc4)C(=O)[C@H]23)cc1OC,0.8,-4,3.4,1.4,-3,0.4,3,-13
CC1(Cc2cn(CCC#N)c3ccccc23)OCCO1,1.7,-1,1.1,-0.2,1,-0.7,-5,-10
CCn1cc(/C=C/C(=O)Nc2c(C)nn(Cc3ccccc3C)c2C)cn1,-1.2,3,2.5,3.4,9,2.4,-22,-11
COc1ccc([N+](=O)[O-])cc1NC(=O)C(C)OC(=O)C1CC(=O)N(Cc2ccco2)C1 (stereo unspecified),-1.3,7,-3.5,4.5,5,0.6,-2,-8
O=C(O)CCC(=O)Nc1ccc2c(c1)oc1ccccc12,0.6,-7,-3.4,-0.1,2,-2.5,-4,-17
Cc1ccc(C)c(N2CCN(C(=O)c3cccn4c(=O)c5sccc5nc34)CC2)c1,1.2,2,-0.4,-26,6,1.0,-5,29
COCCCNC(=O)CCn1c(=O)c2ccccc2n(CC(=O)Nc2ccc(C)cc2C)c1=O,-4.7,-1,3.9,-2.0,-6,-0.4,-6,6
CC(=O)c1ccc(NC(=O)CCNS(=O)(=O)c2ccccc2F)cc1,-1.1,-4,3.3,2.5,-6,-0.6,-1,-3
CCCC1=C(C(=O)OCC)C(c2ccc(O)cc2)n2ncnc2N1 (stereo unspecified),-1.5,-7,-1.7,-0.4,1,0.1,0,-14
CCN(CC)S(=O)(=O)c1cccc(NC(=O)COC(=O)C2COc3ccccc3O2)c1 (stereo unspecified),3.4,-11,?,2.8,-6,1.2,-3,-7
S=C1NCN(Cc2cccnc2)CN1c1cccc2ccccc12,1.2,-1,1.2,0.7,2,0.6,9,41
O=C(Nc1cnn(Cc2ccc(F)cc2)c1)c1noc2c1CCCC2,0.5,10,?,7.2,6,0.7,-7,-8
Cc1ccc(C(=O)N(CC(=O)NC2CCCC2)c2ccc3c(c2)OCCO3)s1,1.8,-2,0.9,0.0,?,0.6,-2,12
Cc1cc(NS(=O)(=O)c2ccc(NC(=O)C(C)N3C(=O)c4ccccc4C3=O)cc2)nc(C)n1 (stereo unspecified),1.7,/,-0.3,2.7,-1,0.4,1,-7

# Screening results from PubChem.

# Rows are unselected; 4.3% or so of the library scored in one or more.
